HPGD inh: HPGD (human) dehydrogenase inhibition | Potency, µM, without a hit: at the top dose activity change, negative = inhibition, actives largely listed as inhibitors | AID 894 | 4.3% of 150,000 active | purified HPGD, NADH fluorescence kinetic, PGE2 substrate | P15428; active = well fitted inhibition curve with a large enough effect (not every such curve was filed as active); inconclusive = small, poorly fitted or top-dose-only effect, or another doubt; inactive = no such curve, though single readings can be large or run the other way;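 also: top concentration of the series not given in the record; plate controls included wells without enzyme; inactives centre near -10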
Target sequence (P15428 whole entry, looked up): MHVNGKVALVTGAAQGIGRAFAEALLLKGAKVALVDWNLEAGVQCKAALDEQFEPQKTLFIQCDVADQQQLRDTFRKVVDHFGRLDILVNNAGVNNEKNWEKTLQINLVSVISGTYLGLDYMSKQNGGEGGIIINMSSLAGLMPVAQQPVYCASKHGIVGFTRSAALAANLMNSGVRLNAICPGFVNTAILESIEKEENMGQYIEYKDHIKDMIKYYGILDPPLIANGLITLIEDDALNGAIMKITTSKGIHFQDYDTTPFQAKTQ
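20 nM HPGD preincubated 15 min at room temperature with compound in 50 mM Tris-HCl pH 8, 0.01% Tween 20. Started with 1 mM NAD+ and 30 uM prostaglandin E2; NADH fluorescence (360/450 nm) read 5 times over 30-s intervals, last minus first.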
The depositor's hits bear a star; ? = inconclusive; ! = not active in a repeat. % is scaled to controls: 0 for no effect and ±100 for the full control effect; potency is read from the fitted curve at half-maximal effect.

| compound | HPGD inh |
| --- | --- |
| Cc1onc(-c2c(F)cccc2Cl)c1C(=O)NCC1COc2ccccc2O1 (centres undefined) | -7% |
| CCCCSc1nc(C)c(C(C)=O)cc1C#N | -10% |
| COc1ccc(-c2nnc(COc3ccc4ccccc4c3)o2)cc1OC | ? |
| COc1ccccc1-c1nnc(NC(=O)C(C)SC2=NCCS2)s1 (centres undefined) | -12% |
| CCC(=O)NC(C)C(c1cccs1)N1CCN(Cc2ccccc2)CC1 (centres undefined) | -8% |
| N#CC1=C(N)Oc2cc(O)ccc2C1c1ccncc1 (centres undefined) | -16% |
| Cc1ccccc1CN1CCN(Cc2ccccc2C(F)(F)F)CC1 | 3% |
| O=C(Cn1nnc(-c2ccccc2)n1)Nc1ccc2c(c1)OCO2 | -8% |
| O=c1[nH]c2cc3c(cc2cc1CN(CCc1ccccc1)Cc1nnnn1C1CCCC1)OCCO3 | ? |
| CCOc1ccccc1N1CCN(Cc2ccc(Br)s2)CC1 | -5% |
| CC1CC(C)CN(CCCNC(=O)Cc2c(C(=O)O)[nH]c3ccccc23)C1 (centres undefined) | -23% |
| O=C(CCCCCCN1C(=O)c2ccccc2C1=O)NC1CCCCC1 | 4.5µM* |
| COc1cc(S(=O)(=O)N2CCOCC2)ccc1NC(=O)CSc1nnc(N)s1 | 1% |
| CCCCNC(=O)NS(=O)(=O)c1ccc(NS(=O)(=O)c2ccccc2)cc1 | -9% |
| CCc1c(O)nc(SCC(=O)Nc2ccccc2C)[nH]c1=O | -3% |
| COc1ccc(C)cc1S(=O)(=O)N1CCC(C(=O)N2CCOCC2)CC1 | -12% |
| CC(C)(C)n1nnnc1C(c1cccc(C(F)(F)F)c1)N1CCOCC1 (centres undefined) | -2% |
| Cc1cc(CC(C)C)n(-c2nc3ccccc3c(=O)n2OCc2ccccc2)n1 | -11% |
| N#Cc1cn(CC(=O)O)c2ccccc12 | -12% |
| COc1ccc(NC(=O)CCCCn2c(=O)[nH]c3ccccc3c2=O)cc1 | -5% |
| CN(C)S(=O)(=O)c1cccc(NC(=O)CN2C(=O)C3C4C=CC(C4)C3C2=O)c1 (centres undefined) | 2% |
| O=C(O)COc1ccccc1Cc1ccccc1 | -8% |
| Cc1ccc(CCNS(=O)(=O)c2cnc[nH]2)cc1 | 1% |
| CCC(C)n1cnc2c(=O)oc3ccccc3c21 (centres undefined) | -17% |
| CCCN(CCC)c1nc(Cl)nc(NCc2ccco2)n1 | -16% |
| CCOC(=O)CCC(NC(=O)CCCCCCCC(=O)NC(CCC(=O)OCC)C(=O)OCC)C(=O)OCC (centres undefined) | -8% |
| O=C(O)CCNS(=O)(=O)c1ccc(Oc2ccccc2)cc1 | 0% |
| CCc1ccc(NC(=O)C(C)OC(=O)/C=C/c2cccc([N+](=O)[O-])c2)cc1 (centres undefined) | -3% |
| CC(C)C[C@@H](CC(=O)N[C@@H](CCC(=O)O)CC(=O)O)NC(=O)[C@@H]1CCCC[C@H]1NC(=O)C[C@H](CCCN)NC(=O)C[C@H](Cc1c[nH]c2ccccc12)NC(=O)[C@@H]1CNCC[C@H]1N | -8% |
| COc1ccc(NC(=O)C2CCCN2S(=O)(=O)c2ccc(F)cc2)cc1 (centres undefined) | -17% |
| COC[C@H]1OC=C[C@@H](OC)[C@@H]1OC | -3% |
| CC(O/N=C\c1ccccc1O)C(=O)Nc1ccccc1C(=O)N1CCOCC1 (centres undefined) | -19% |
| COC(=O)c1cccc(C23CC4(C2)[C@H](CN(C)[C@@H]4c2ccccc2)C3c2ccccc2)c1 (some centres undefined) | -11% |
| CCN1c2ccccc2N(C)C1(C)c1ccccc1 (centres undefined) | -7% |
| CCOC(=O)N1CCC(NC(=O)Cn2cc3c(n2)CCC(C)C3)CC1 (centres undefined) | -10% |
| O=C1NN=C(c2ccc(Cl)cc2)CC1c1cccc(Cl)c1 (centres undefined) | -10% |
| COc1ccc(CC(=O)NC(=S)NNC(=O)COc2c(C)cccc2C)cc1 | -16% |
| Cc1sc(NC(=O)COc2ccccc2)c(C#N)c1-c1ccccc1 | -1% |
| COc1ccc(N(CC(=O)Nc2ccccc2SC)S(C)(=O)=O)cc1OC | -3% |
| O=c1cc(/C=C/c2c(F)cccc2Cl)[nH]c2ccccc12 | ? |
| COc1cccc(N2C(=O)CC(N3CCc4ccccc43)C2=O)c1 (centres undefined) | -10% |
| CCOC(=O)NC(NC(=S)Nc1ccc(OC)cc1)C(Cl)(Cl)Cl (centres undefined) | -5% |
| COC(=O)c1ccccc1NC(=O)c1ccccc1SC | -30% |
| CCCCCCCCCCS(=O)(=O)N/N=C/c1ccccc1OC | -15% |
| O=C1NC(c2ccccc2)=NC1(NS(=O)(=O)c1ccc(Cl)cc1)C(F)(F)F (centres undefined) | 0% |
| CCNC(=O)/C(=C\C=C\c1ccccc1)NC(=O)c1ccc(Br)o1 | -4% |
| CC(C(=O)O)N1C(=O)CSC1=S (centres undefined) | -10% |
| COc1ccc(N2CCCn3c2nc2c3c(=O)n(CCc3ccccc3)c(=O)n2C)cc1 | -19% |
| Cc1cc(C)n(-c2ccc(C(=O)OCC(=O)NC(c3ccccc3)c3ccccc3)cc2)n1 | -3% |
| CCC(=O)NCCSc1c[nH]c2ccccc12 | -13% |
| CC(C)C(NC(=O)OCc1ccccc1)C(=O)NCC(=O)OC(C)(C)C (centres undefined) | -2% |
| CCNC(=S)NC1CC2CCCC(C1)N2Cc1ccco1 (centres undefined) | -8% |
| O=C1c2cc([N+](=O)[O-])cc3cc([N+](=O)[O-])cc(c23)C(=O)N1c1ccccn1 | -14% |
| COC(=O)[C@H](COC(C)(C)C)NC(=O)O[C@@H]1Cc2cc(Br)ccc2O[C@H]1c1cccc(OC)c1 | -4% |
| Cc1cccc(C)c1Nc1c(-c2ccsc2)nc2ncccn12 | -4% |
| O=c1cc(-c2ccccc2)oc2cc(O[C@@H]3O[C@H](CO)[C@@H](O)[C@H](O)[C@H]3O)c(O)c(O)c12 | 11µM* |
| CCCCCCCc1cc2ccccc2c(=O)o1 | -10% |
| CC(=O)CCN1CCOCC1 | -16% |
| CC1(OC(=O)C2CCCC2)C(=O)C=C2C=C(c3ccsc3)N(Cc3ccc4c(c3)OCO4)C=C2C1=O (centres undefined) | -11% |
| Cc1cc(C)c2cc(C(c3nnnn3CC3CCCO3)N3CCN4CCCC4C3)c(=O)[nH]c2c1 (centres undefined) | -15% |

(more compounds)
| compound | HPGD inh |
| --- | --- |
| CC(C)[C@@H](CC(=O)N[C@@H]1CCCC[C@H]1C(=O)N[C@H](CC(=O)N[C@@H](CCC(=O)O)CC(=O)O)Cc1c[nH]c2ccccc12)NC(=O)C[C@H](Cc1c[nH]c2ccccc12)NC(=O)[C@@H]1CNCC[C@H]1N | -5% |
| COc1ccc(-c2nnc(NC(=O)CSc3ccc(C)cc3)s2)cc1OC | ? |
| COc1ccc(-n2c(C)cc(C(=O)COC(=O)c3cc(NC(=O)c4cccs4)c(OC)c(OC)c3)c2C)cc1 | ? |
| CCSc1nc(C2CC2)cc(-c2cccs2)c1C#N | ? |
| N#C/C=C(/N)c1ccc(Br)cc1 | -3% |
| CCCN(CCO)Cc1cccc(Oc2ccccc2)c1 | -23% |
| CCCCCCn1c2c(c(=N)c3c1CCC3)CCC2 | -5% |
| Cc1ccccc1Nc1nc(N)nc(COC(=O)C(NC(=O)c2ccco2)C(C)C)n1 (centres undefined) | -4% |
| CCOC(=O)c1ccc(NS(=O)(=O)c2cnc[nH]2)cc1 | -13% |
| CN(C)S(=O)(=O)c1cccc(NC(=O)c2cc(-c3cccs3)nn2-c2cccc(Cl)c2)c1 | -11% |
| CCN(C1CCS(=O)(=O)C1)S(=O)(=O)c1cccs1 (centres undefined) | -8% |
| COCCN1CCn2c(nc3cc(NC(=O)NC4CCCCC4)ccc32)C1 | ? |
| CCn1c(/C=N/c2nc3ccccc3n2C)nc2ccccc21 | -13% |
| O=C(NCc1ccccn1)C1CCC(=O)N1C1CCCCC1 (centres undefined) | 0% |
| Cc1ccc(C(C(=O)NC2CCCCC2)N(Cc2cccnc2)C(=O)C2COc3ccccc3O2)o1 (centres undefined) | -8% |
| COC(=O)C1=C(N)Oc2cc(C)[nH]c(=O)c2C1c1cc(OC)c(OC)c(OC)c1 (centres undefined) | -2% |
| COc1ccc(NC(=O)C2CCCCN2N)cc1OC (centres undefined) | 1% |
| CCOC(=O)CN1CC23C=CC(O2)C(C(=O)Nc2ccc(OCC)cc2)C3C1=O (centres undefined) | 0% |
| Cc1ccc(S(=O)(=O)N2CCC(=O)N(C(COCc3ccc(Cl)cc3Cl)Cc3ccccc3)CC2)cc1 (centres undefined) | -18% |
| Cc1ccc(-c2ccc(CCC(=O)O)n2NC(=O)c2cccs2)cc1 | -21% |

Three structures out of the list, arranged by length of the SMILES, smallest number first:
| compound | HPGD inh |
| --- | --- |
| CCSc1nc(C2CC2)cc(-c2cccs2)c1C#N | ? |
| O=c1cc(/C=C/c2c(F)cccc2Cl)[nH]c2ccccc12 | ? |
| Cc1ccc(S(=O)(=O)N2CCC(=O)N(C(COCc3ccc(Cl)cc3Cl)Cc3ccccc3)CC2)cc1 (centres undefined) | -18% |

(more compounds)
| compound | HPGD inh |
| --- | --- |
| CCN1CCN(C(=O)c2ccc(Cl)c(S(=O)(=O)N3CCOCC3)c2)CC1 | -1% |
| Cc1cc(C)n2nc(SCC(=O)N3CCc4ccccc43)nc2n1 | -23% |
| O=C1OC(OC2CCCCC2)(c2ccccc2)c2ccccc21 (centres undefined) | -12% |
| CCN1CCN(C(=O)CCc2ccc(S(=O)(=O)NCCc3ccccc3)cc2)CC1 | -14% |
| CN1CCCN(CC(O)COCc2cccs2)CC1 (centres undefined) | -2% |
| CCOC(=O)c1cc2c(C)n(-c3ccc(N(C)C)cc3)c(C)c2cc(C(=O)OCC)c1=O | -7% |
| O=c1c2ccccc2c(-c2ccccc2)nn1-c1cc(Cl)ccc1[N+](=O)[O-] | -9% |
| Cn1nnnc1SCC(=O)c1cccs1 | -7% |
| Cc1cccc(Nc2ccccc2C(=O)OCC(=O)NCc2ccco2)c1C | ? |
| CCCCCCNC(=O)CCNC(=O)c1cc(OC)c(OC)c(OC)c1 | -10% |
| COC(=O)c1sccc1NC(=S)Nc1cc(C)cc(C)c1 | -13% |
| COCCCNC(=S)Nc1ccccc1C | -7% |
| COc1ccc(NC(=O)C2CC(=O)OC23CCCCC3)cc1 (centres undefined) | -6% |
| CC(=O)Nc1cc(C(=O)NCc2ccco2)ccc1Sc1ccc(C)cc1 | -1% |
| CN(C)C(=O)CSc1nc2ccccc2n1CC(=O)N1CCN(c2ccccc2)CC1 | -16% |
| Cc1ccc(-c2csc(NC(=O)CSc3nc4ccccc4o3)n2)cc1 | -4% |
| COc1ccc(CCNC(=O)CSc2nc3ccccc3o2)cc1 | -6% |
| COc1nc(NCCc2ccc(OC)c(OC)c2)nc(OC)n1 | -22% |
| N#C/C(=C(/O)CN1CCOCC1)c1nc(-c2ccccc2)cs1 | -11% |
| COc1cc(CNCc2cccs2)ccc1OCC(=O)NC(C)(C)C | -6% |
| Cc1cccn2c(=O)c3cc(C(=O)NC4CCCC4)c(=N)n(C4CCCC4)c3nc12 | ? |
| COc1ccccc1C(=O)NNC(=O)c1ccccc1[N+](=O)[O-] | -3% |
| COc1cc(-c2nnc(SCC(=O)c3cc(C)n(CC4CCCO4)c3C)o2)cc(OC)c1OC (centres undefined) | ? |
| Cc1nn(C(=O)C2CC2)c(C)c1Sc1ccc(Cl)cc1 | -8% |
| CCCCCCCCCCCC1=C(O)C(=O)C=C(O)C1=O | 14µM*! |
| CCOC(=O)COc1ccc2nsnc2c1 | -20% |
| COc1ccc2c(c1OC)C(=O)c1ccccc1C2=O | -13% |
| COc1cc([N+](=O)[O-])ccc1NC(=O)C[n+]1ccccc1C | -20% |
| O=C(O)COc1ccc(-c2nccc(-c3cccs3)n2)cc1 | ? |
| O=C(CN1C(=O)c2ccccc2S1(=O)=O)N1CCN(c2ccc(F)cc2)CC1 | -4% |
| C=C(C)C(C)(C#CCN1CCCC1)OC(C)=O (centres undefined) | -1% |
| CCCCC1=CC2=C(c3ccco3)C(=O)C(C)(OC(=O)c3ccc(OC)cc3)C(=O)C2=CN1C(CO)CO (centres undefined) | -4% |
| CCCC1=Nc2cc(C(=O)NCCCOCC)ccc2Sc2ccccc21 | -15% |
| CS/C(=N\S(=O)(=O)c1cccs1)Nc1ccc(Cl)cc1 | -2% |
| CCOC(=O)CSc1c(-c2ccccc2)c2cc(Cl)ccc2[nH]c1=O | 18µM* |
| O=C(COc1ccc(Cl)cc1)NCc1nnc(SCC(=O)NCCc2ccccc2)o1 | -12% |
| CC(C)OC(=O)c1cc(NC(=O)c2nn(C)cc2Br)cc(C(=O)OC(C)C)c1 | -11% |
| CC(C)(C)SCCNC(=O)COc1ccccc1 | ? |
| CCOc1ccc(NC(=O)Nc2cc(C)ccc2OC)cc1 | -8% |
| Cc1cc(C(=O)CSc2ccc(F)cc2)cc(C)c1OC(=S)N(C)C | -13% |

Four entries from above, reformatted.
CS/C(=N\S(=O)(=O)c1cccs1)Nc1ccc(Cl)cc1
- HPGD inh = -2%

CCOC(=O)CSc1c(-c2ccccc2)c2cc(Cl)ccc2[nH]c1=O
- HPGD inh = 18µM*

O=C(COc1ccc(Cl)cc1)NCc1nnc(SCC(=O)NCCc2ccccc2)o1
- HPGD inh = -12%

CC(C)OC(=O)c1cc(NC(=O)c2nn(C)cc2Br)cc(C(=O)OC(C)C)c1
- HPGD inh = -11%

Next section.
| compound | HPGD inh |
| --- | --- |
| Cc1c(Br)cc(C(=O)N2CCN(CCO)CC2)c(C)c1C | -6% |
| COc1ccc(N(CC(=O)N/N=C/c2cccc3c2OCCO3)S(=O)(=O)c2ccc(NC(C)=O)cc2)cc1 | ? |
| N#CCSc1nc2ccccc2c(=O)n1CCC(=O)NC1CCCCC1 | -6% |
| Cc1nc(NCc2ccco2)nc2c1C(=O)CC(C)C2 (centres undefined) | -26% |

From PubChem

Only part of the results is shown, so the mix of outcomes need not match the whole.
